Screens as filed in PubChem.
VDR inhibitor: vitamin D3 receptor (human) inhibition; P11473; AID 504847; VDR-SRC2-3 peptide fluorescence polarization, 2 h; actives 0.93% (n = 400,000); Potency, µM, for the others: max response, negative = inhibition, hits mostly inhibitors; active = well fitted inhibition curve with a large enough effect; inconclusive = small, poorly fitted or top-dose-only effect, or another doubt; inactive = no such curve, though single readings can be large or run the other way; note: series mostly up to about 120 µM
Target sequence (P11473 whole entry, looked up): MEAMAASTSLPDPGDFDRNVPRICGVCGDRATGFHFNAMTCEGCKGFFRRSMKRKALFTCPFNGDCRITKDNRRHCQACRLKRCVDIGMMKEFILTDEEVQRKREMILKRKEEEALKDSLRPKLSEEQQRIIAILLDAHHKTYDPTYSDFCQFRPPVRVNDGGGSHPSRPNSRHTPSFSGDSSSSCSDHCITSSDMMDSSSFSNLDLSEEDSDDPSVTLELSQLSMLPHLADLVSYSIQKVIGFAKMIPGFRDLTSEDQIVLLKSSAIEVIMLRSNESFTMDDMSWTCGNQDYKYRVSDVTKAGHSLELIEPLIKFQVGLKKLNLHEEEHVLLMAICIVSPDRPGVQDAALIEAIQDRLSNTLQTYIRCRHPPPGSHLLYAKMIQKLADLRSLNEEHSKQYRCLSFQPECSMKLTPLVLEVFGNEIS
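Measured by FP: displacement of SRC2-3 coactivator peptide from VDR by library compounds, following a two-hour ambient incubation.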
* hit, by the source's call; ? = inconclusive; & = joins results of further samples; [ ] = remark or other dose. % is set by controls: 0 for no effect and ±100 for the full control effect; potency is the fitted concentration of half-maximal effect. These rows are one share of the data; rates above refer to the full screens.

VDR inhibitor | Structure
45µM* | Cc1ccc(S(=O)(=O)n2c([N+](=O)[O-])cnc2C)c(C)c1C
-9% | CCOc1ccc(C(=O)NCC(=O)OCCCOC(=O)CNC(=O)c2ccc(OCC)cc2)cc1
-24% | CCc1nn2c(=O)cc(COc3ccc(/C=C4\C(=N)N5N=C(CC(C)C)SC5=NC4=O)cc3)nc2s1
6% | CCOC(=O)C(=O)NCC(c1cccnc1)N1CCN(c2ccccc2)CC1 (stereo not drawn)
-11% | COc1cccc(-c2ccc3ncnc(NCc4cccc(C)c4)c3c2)c1
? | COc1cccc(C(=O)Nc2ccc(NC(=O)Cc3ccccc3)cc2)c1
-11% | COc1cccc(OC)c1OCCCOc1ccc(C)cc1Br
1% | COc1ccccc1CCC(=O)Nc1cc(S(=O)(=O)N2CCOCC2)ccc1N1CCCC1
3% | COc1ccc(NC(=O)N2CCN(S(=O)(=O)c3ccc4c(ccn4C)c3)CC2)c(OC)c1
0% | Nc1n[nH]c2c1C1(CCCCC1)Cc1ccccc1-2
5% | COc1ccc(CNC(=O)C2CCCN2S(=O)(=O)c2ccc(S(=O)(=O)N(C)C)cc2)cc1 (stereo not drawn)
-17% | CCCCOC(=O)c1ccc(NC(=S)N2CCN(c3ncc4c(=O)c(C(=O)O)cn(CC)c4n3)CC2)cc1
13% | Cc1nnc(SCC(=O)Nc2ccccc2)c2ccccc12
9% | CCOC(=O)c1c(C)[nH]c(C)c1C(=O)CSc1nnc(-c2ccco2)n1Cc1ccccc1
-1% | Cc1cc(=O)oc2cc(NC(=O)c3cccc(F)c3)ccc12
1% | COCCn1c(SCc2ccccc2F)nc2c([nH]c3ccccc32)c1=O
-3% | O=C(CSc1ccc2nnc(CCNC(=O)c3ccccc3)n2n1)NC1CCCC1
-17% | O=C(NCCc1c[nH]c2ccccc12)/C(=C/c1cccnc1)NC(=O)c1cccs1
8%&2% | COc1ccc2cc1Oc1ccc(cc1)C[C@H]1c3cc(c(OC)cc3CCN1C)Oc1c(OC)c(OC)cc3c1[C@@H](C2)N(C)CC3
3% | CCOc1ccc(Nc2c(S(=O)(=O)c3ccc(C)cc3)cnc3ccc(F)cc23)cc1
-4% | COc1cccc(-c2nc3ccccc3s2)c1
-1% | CCOC(=O)C1=C(COC(=O)COc2ccccc2C#N)NC(=O)NC1C (stereo not drawn)
-4% | CCOC(=O)Cn1c(S(=O)(=O)Cc2ccc(F)cc2)nc(-c2ccccc2)c1-c1ccccc1
-8% | COCC(C)n1c(=O)sc2ccccc2c1=O (stereo not drawn)
7% | COC(=O)c1ccc(CN2CCC(n3nccc3NC(=O)C3CCCC3)CC2)cc1
14% | COC(=O)c1cccc(NC(=O)COC(=O)CSc2nc(C)cc(C)n2)c1
-6% | Cc1ccc(Cl)cc1Nc1nc2ccccc2c2nncn12
-16% | Cc1ccc(S(=O)(=O)N2CCN(CC(=O)N/N=C\C(Cl)=C\c3ccccc3)CC2)cc1
1% | CCOC(=O)N1CCN(Cc2nc3cc(NC(=O)C(C)C)ccc3n2C(C)C)CC1
-4% | O=C(NCc1n[nH]c(=S)n1-c1ccc(Br)cc1)c1ccc(S(=O)(=O)N2CCCCC2)cc1
0% | CCN(C(=O)COc1cc(=O)n(CC)c2ccccc12)c1cccc(Cl)c1
-3% | CS(=O)(=O)N1CCC(C(=O)Nc2ccc(F)cc2F)CC1
-25% | Cc1cccc(NCN2C(=O)c3ccncc3C2=O)n1
3% | COc1ccc(CCN(C)C(=O)C2CCN(Cc3ccccc3)CC2)cc1OC
9% | O=C(NCc1ccccc1)C1=C[C@@H](c2ccccc2)C[C@@H](OCCCCO)O1
-3% | O=C(NCCCl)Nc1cccnc1Cl
-5% | C=CCOc1ccc(C(=O)Nc2ccccc2C(=O)N2CCCC2)cc1
-4% | O=C(c1cc2ccccc2oc1=O)N1CCOCC1
0% | COc1ccc(S(=O)(=O)NCCc2cn3ccsc3n2)cc1
3% | O=C(Nc1cccc(Cl)c1Cl)c1cc(S(=O)(=O)N2CCCCC2)ccc1F
-5% | COc1ccccc1OCC(=O)NN1Cc2ccccc2C1=N
1% | CCn1c(COc2ccccc2)nnc1SCC(=O)C(C)(C)C
-10% | COc1cc(NC(=O)C(=O)NNC(=O)C2CCCCC2)c(OC)cc1Cl
-25% | COCCn1c(=O)c(-c2cccc(C#N)c2)nc2cnc(N3CCNCC3)nc21
3% | CN(C)c1ccc(C(=O)/C=C/c2ccc(Br)cc2)cc1
19% | CCCc1[nH]nc2c1C(c1ccc(OCCN3CCOCC3)c(OCC)c1)C(C#N)=C(N)O2 (stereo not drawn)
11% | COc1ccc(CCC(C)Nc2ccc(F)cc2)cc1 (stereo not drawn)
-1% | COc1ccc(NC(=S)NCc2ccccc2)c(OC)c1
2% | Fc1ccc(-c2nnc(CSc3nnc(-c4ccc5c(c4)OCO5)o3)o2)cc1
-11% | CCOc1cccc(CN2CCC(Oc3ccc(C(=O)N4CCCC4)cc3)CC2)c1
13% | CCCCn1c(CCCNC(=O)c2ccco2)nc2ccccc21
-1% | Cc1cccn2c(=O)c3cc(C(=O)NCc4ccco4)c(=N)n(CCOCCO)c3nc12
? | Cc1cc(C)c(CN2CCC(N3CCC(C(=O)NCC4CCCO4)CC3)CC2)cc1C (stereo not drawn)
-2% | O=C(O)C1CC(=O)N(c2ccc(OCc3ccccc3Cl)cc2)C1 (stereo not drawn)
4% | CCc1cccc(NC(=O)CN2C(=O)NC3(CCCCCCC3)C2=O)c1
0% | COc1ccc(CNC(=O)c2cc3cccc(O)c3oc2=N)cc1
11% | COC(=O)c1cc(S(=O)(=O)N2CCN(C(=O)c3ccco3)CC2)cn1C
-14% | CCn1ccc(C(=O)Nc2ccccc2Cl)n1
-5% | c1ccc(NC(c2ccccc2)c2ccncc2)cc1 (stereo not drawn)
12% | COc1ccc(Cl)cc1NC(=S)NNC(=O)C1(C)CC1(Cl)Cl (stereo not drawn)

Remaining list, next part:
VDR inhibitor | Structure
5% | O=C(CN1C(=O)C2CC=CCC2C1=O)NCC(=O)Nc1ccc(F)c(F)c1F (stereo not drawn)
-9% | Cc1nn(-c2ccc(Cl)cc2)c2sc(C(=O)c3c(N)n(C)c(=O)n(C)c3=O)cc12
1% | O=C(CCN1C(=O)C2CC=CCC2C1=O)Nc1cc(C(F)(F)F)ccc1N1CCCC1 (stereo not drawn)
-24% | CC(C)CN(C(=O)COC(=O)C(C)N1C(=O)c2ccccc2C1=O)c1c(N)n(Cc2ccccc2)c(=O)[nH]c1=O (stereo not drawn)
-8% | COc1cccc(/C=N/N2CCOCC2)c1O
6% | COC(=O)Nc1nc(-c2cc(Cl)ccc2Cl)cs1
10% | COc1ccc(CCNC(=O)CCSc2nc(-c3ccco3)cc(C(F)(F)F)n2)cc1OC
-8% | CCNc1ccccc1C(=O)O
10% | Cc1ccc2c(c1)NC(=O)C(N1CCOCC1)(C(F)(F)F)O2 (stereo not drawn)
0% | O=C(CCCCCCCC(=O)c1ccccc1)c1ccccc1
6% | COc1ccc(C)cc1NC(=O)c1ccoc1C
-11% | Cc1c(NC(=O)CN2C(=O)NC(C)(c3ccc(OC(F)F)cc3)C2=O)c(=O)n(-c2ccccc2)n1C (stereo not drawn)
0% | O=C(Nc1ccccc1F)NC1CC1
-3% | O=C(/C=C/c1c(Cl)cccc1Cl)NCc1ccco1
-2% | Cc1cccc(CC(=O)Nc2c(C(=O)Nc3cccc(F)c3)oc3ccccc23)c1
-11% | O=C(CCNS(=O)(=O)c1ccc(Br)s1)NCc1ccc(F)cc1
71µM* | Nc1nc(=S)c2ncn(C3OC(CO)C(O)C3O)c2[nH]1 (stereo not drawn)
1% | O=C(CN1C2=NCCN2c2ccccc21)c1ccc2c(c1)OCO2
5% | COC(=O)COc1ccc2oc(-c3ccc(OC)cc3)cc(=O)c2c1
-8% | CS(=O)(=O)Nc1ccccc1C(=O)NCC1(N2CCCCC2)CCCCC1
-6% | O=C(COc1ncnc2sccc12)NC1CCCc2ccccc21 (stereo not drawn)
5% | Cc1ccccc1NC(=O)C(=O)NCC1CCCN1S(=O)(=O)c1cccs1 (stereo not drawn)
-5% | COc1ccc(-c2csc(NCCc3nc4cc(C(=O)NCCCO)ccc4n3Cc3ccc(C)cc3)n2)cc1
35%[activator] | COc1ccc(Cc2nnc(N/N=C(\C)c3ccccc3)[nH]c2=O)cc1OC
-11% | COc1ccc(S(=O)(=O)N2CCN(Cc3nc4ccc(C)cc4o3)CC2)cc1
-1% | CCOC(=O)C1CCCN(C2=NC(=O)/C(=C/c3ccc(O)c(OCC)c3)S2)C1 (stereo not drawn)
? | CC12CN3CC(C)(CN(C1)C3c1ccc(Cl)cc1Cl)C2=O (stereo not drawn)
-5% | COCCn1c(=O)c(CCc2ccccc2)nc2cncnc21
20% | Cc1ccc(S(=O)(=O)N2CCOCC2)cc1NC(=O)COC(=O)c1ccc2c(c1)OCO2
5% | CC(=O)Nc1ccc(S(=O)(=O)Nc2nccc(/C=C/c3ccccc3F)n2)cc1

Three entries out of the list, ordered by SMILES length, lowest first:
VDR inhibitor | Structure
-1% | COc1ccc(NC(=S)NCc2ccccc2)c(OC)c1
12% | COc1ccc(Cl)cc1NC(=S)NNC(=O)C1(C)CC1(Cl)Cl (stereo not drawn)
9% | O=C(NCc1ccccc1)C1=C[C@@H](c2ccccc2)C[C@@H](OCCCCO)O1

Next part
VDR inhibitor | Structure
-11% | O=C(COC(=O)C1(c2ccccc2F)CCCC1)NCc1cccs1
-6% | NC(=O)C1CCN(c2nc(-c3cc4ccccc4o3)cs2)CC1
-7% | CCOc1ccc(N=C(NC#N)SC)cc1
24% | CS(=O)(=O)N(CC(O)CON=C1c2ccccc2-c2ccccc21)c1ccc(F)cc1 (stereo not drawn)
3% | COc1ccc(OC)c(C2=NOC(C(=O)NCc3ccccn3)C2)c1 (stereo not drawn)
-16% | Clc1ccc(CN2CCN(c3ncccn3)CC2)cc1
35µM* | C=CC(C1=CC(=O)C=CC1=O)c1ccccc1 (stereo not drawn)
-8% | O=C1C2CCCN2C(=O)N1CCCN1CCN(c2ccc([N+](=O)[O-])cc2)CC1 (stereo not drawn)
-1% | C=CCn1c(SCc2cccc3ccccc23)nnc1-c1cccnc1
-2% | N#C/C=C/N1CCC(Cc2ccccc2)CC1
-11% | CCOC(=O)c1oc2c(CN3CCN(C)CC3)c(O)c(CC)cc2c(=O)c1-c1nc2ccccc2s1
-5% | O=C(c1ccc([N+](=O)[O-])cc1)N1CCN(c2cccc3[nH]ccc23)CC1
-8% | NC(=O)C1CCN(c2oc(/C=C/c3ccc(F)cc3)nc2S(=O)(=O)c2ccccc2)CC1
15% | CCCCc1nnc(NC(=O)c2ccc3c(=O)n4c(nc3c2)CCC4)s1
-18% | COc1cc(/C=N/NC(=O)c2ccoc2C)ccc1O
3% | Cc1cccc(CNC(=O)CCn2c(=O)c3cccn3c3ccc(F)cc32)c1
14% | CCOC(=O)c1c(NC(=O)COC)sc(C)c1C
-4% | O=C(C[C@H]1C[C@H](C(=O)N2CCCCC2)[C@@]2(CCc3ccccc3)c3[nH]c4ccc(Cl)cc4c3CCN2C1=O)NCc1cccc(C(F)(F)F)c1
4% | COc1ccc(OC)c(NC(=O)CSc2nnc(CNC(=O)c3cccs3)o2)c1
-12% | O=c1c2[nH]c3ccccc3c2ncn1CCN1CCOCC1
-9% | O=C(Nc1ccc(C(=O)N2CCCCC2)cc1)C1CC1
-26% | Cc1ccc(NC(=O)COc2ccc(C(=O)c3ccccc3)cc2)c(O)c1
-15% | Cc1nc2ccc(NC(=O)c3ccco3)cc2nc1C
-9% | COc1cc(NC(=O)c2ccccc2)c(OC)cc1NC(=O)Cc1ccc(C)cc1
9% | COc1ccc(C(=O)COC(=O)c2ccccn2)c(OC)c1
-2% | N#CC1=C(N)Oc2c(O)cc3ccccc3c2C1c1ccsc1 (stereo not drawn)
43%[activator] | COc1ccc2c(c1)NC(C)(C)C=C2C
9% | COc1cccc(C(=O)NC2CC3CCCC(C2)N3CC(=O)Nc2ccccc2)c1 (stereo not drawn)
-5% | CCCN=C(N)/C(C(=O)OCC)=C(\O)c1ccc(OC)cc1
-17% | CC(C)(C)c1ccc(NC(=O)CSc2nnc(-c3n[nH]c4ccccc34)o2)cc1
7% | CCN(CC(=O)N1CCN(C)CC1)S(=O)(=O)c1ccc(Cl)cc1
5% | C[C@@H]1NC(=O)[C@H](CC(N)=O)NC(=O)c2cc([N+](=O)[O-])cc(I)c2OCC[C@@H](C(=O)NC(CC(=O)O)C(N)=O)NC1=O (stereo partly drawn)
-15% | Cc1cc2[nH]c(=O)c(=O)[nH]c2cc1S(=O)(=O)NCc1ccc(Cl)cc1

Entries from the list above that have an NH in an aromatic ring (14):
VDR inhibitor | Structure
0% | Nc1n[nH]c2c1C1(CCCCC1)Cc1ccccc1-2
9% | CCOC(=O)c1c(C)[nH]c(C)c1C(=O)CSc1nnc(-c2ccco2)n1Cc1ccccc1
1% | COCCn1c(SCc2ccccc2F)nc2c([nH]c3ccccc32)c1=O
-17% | O=C(NCCc1c[nH]c2ccccc12)/C(=C/c1cccnc1)NC(=O)c1cccs1
-4% | O=C(NCc1n[nH]c(=S)n1-c1ccc(Br)cc1)c1ccc(S(=O)(=O)N2CCCCC2)cc1
19% | CCCc1[nH]nc2c1C(c1ccc(OCCN3CCOCC3)c(OCC)c1)C(C#N)=C(N)O2 (stereo not drawn)
-24% | CC(C)CN(C(=O)COC(=O)C(C)N1C(=O)c2ccccc2C1=O)c1c(N)n(Cc2ccccc2)c(=O)[nH]c1=O (stereo not drawn)
71µM* | Nc1nc(=S)c2ncn(C3OC(CO)C(O)C3O)c2[nH]1 (stereo not drawn)
35%[activator] | COc1ccc(Cc2nnc(N/N=C(\C)c3ccccc3)[nH]c2=O)cc1OC
-5% | O=C(c1ccc([N+](=O)[O-])cc1)N1CCN(c2cccc3[nH]ccc23)CC1
-4% | O=C(C[C@H]1C[C@H](C(=O)N2CCCCC2)[C@@]2(CCc3ccccc3)c3[nH]c4ccc(Cl)cc4c3CCN2C1=O)NCc1cccc(C(F)(F)F)c1
-12% | O=c1c2[nH]c3ccccc3c2ncn1CCN1CCOCC1
-17% | CC(C)(C)c1ccc(NC(=O)CSc2nnc(-c3n[nH]c4ccccc34)o2)cc1
-15% | Cc1cc2[nH]c(=O)c(=O)[nH]c2cc1S(=O)(=O)NCc1ccc(Cl)cc1
